High-throughput results from PubChem BioAssay.
MT1-MMP act inh = blockers of MT1-MMP proenzyme processing, primary screen, HT1080 RFP-PRO-GFP cells, GFP/RFP fluorescence | Matrix metalloproteinase-14 (Homo sapiens), P50281 | GFP/RFP ratio fluorescence, overnight; percent of plate control window, DMSO zero | GFP/RFP ratio change, % at 20 µM | 360,000 tested, 0.061% active | AID 651647, 2012;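 active = GFP/RFP ratio change of at least 30% with cell ATP level not reduced by more than half and red fluorescence within 50% of control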; note: strong numbers were not always called active
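Test system: HT1080 cells expressing an RFP-PRO-GFP fluorescent reporter construct / Compound dosing: single-point 20 µM compound, 1% DMSO / Schedule: cells overnight before dosing, compound overnight, 37 °C, 5% CO2 / Evaluation: GFP/RFP fluorescence ratio / Control set: DMSO and RFP-L50D-GFP cell wells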
eIF4H FP inh = human eIF4H binding inhibitors, primary screen, translation initiation inhibitor project, biochemical, uHTS, fluorescence polarization; Eukaryotic translation initiation factor 4H (Homo sapiens), Q15056; eIF4H fluorescence polarization binding assay; 290,000 tested, 0.94% active; inhibition, % at 35 µM;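 active = 50% or more with normal probe brightness, or confirmed in later tests; inconclusive = above 50% with abnormal brightness, or retests that disagree; inactive = below 50% or failed in later tests; about a fifth of its hits are not listed in these tables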;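 note: calls also rest on retests at 20 µM and on dose response follow-up; 0% = protein and probe with vehicle and 100% = probe without protein; strong numbers were not always called active; many hits fall short of the cut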
Yeast UUG start = modulators of yeast start codon fidelity, primary screen, whole organism, S. cerevisiae, single point, plate reader | 350,000 tested, 0.13% active | S. cerevisiae UUG-firefly luciferase reporter, luminescence/redox ratio | activity score, % at 18.7 µM | AID 602363, 2012;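 active = replicate mean at a twofold rise or more, about +100% in these data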;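 note: firefly luciferase made from a UUG start codon reports start codon fidelity; reporter light over untreated wells divided by growth signal over untreated wells; some hits fall short of that in this replicate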
HIV Env fusion = inhibitors of HIV-1 Env-driven cell-cell fusion, primary screen, HeLa-JRFL effector, CEM21 target cells, luciferase; inhibition, % at 12.3 µM; 360,000 tested, 1.1% active;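 active = mean replicate inhibition score of at least 50 and every replicate individually at or above 50; inconclusive = only one of the two criteria met; inactive = mean below 50 and not all replicates reaching 50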;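 note: 0% = plate neutral controls and 100% = maraviroc near 300 nM; one replicate is shown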
CSC inhib = cancer stem cell viability inhibitors, primary screen, luminescence; cancer stem cell-like cells viability; 300,000 tested, 1.1% active; inhibition, % at 7.5 µM;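 active = mean at 75% or more and at least half the replicates too; inconclusive = mean and replicates disagree; tested in HMLE shEcad cells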;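 note: 0% = median of negative and 100% = median of positive control wells; the first replicate is given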
PABP FP inh = PABP poly(A) RNA binding inhibitors, primary screen, biochemical, fluorescence polarization, uHTS; AID 2014, 2009; 290,000 tested, 1% active; Polyadenylate-binding protein 1 (Homo sapiens), P11940; inhibition, % at 35 µM;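 active = 50% or more with normal probe brightness, or confirmed in later tests; inconclusive = above 50% with abnormal brightness, or retests that disagree; inactive = below 50% or failed in later tests; about a fifth of its hits are not listed in these tables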;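 note: calls also rest on retests at 20 µM and on dose response follow-up; controls were probe without protein and protein plus probe with vehicle; some compounds called inactive have numbers as strong as hits; many hits fall short of the cut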
Target sequence (P11940 whole entry, looked up): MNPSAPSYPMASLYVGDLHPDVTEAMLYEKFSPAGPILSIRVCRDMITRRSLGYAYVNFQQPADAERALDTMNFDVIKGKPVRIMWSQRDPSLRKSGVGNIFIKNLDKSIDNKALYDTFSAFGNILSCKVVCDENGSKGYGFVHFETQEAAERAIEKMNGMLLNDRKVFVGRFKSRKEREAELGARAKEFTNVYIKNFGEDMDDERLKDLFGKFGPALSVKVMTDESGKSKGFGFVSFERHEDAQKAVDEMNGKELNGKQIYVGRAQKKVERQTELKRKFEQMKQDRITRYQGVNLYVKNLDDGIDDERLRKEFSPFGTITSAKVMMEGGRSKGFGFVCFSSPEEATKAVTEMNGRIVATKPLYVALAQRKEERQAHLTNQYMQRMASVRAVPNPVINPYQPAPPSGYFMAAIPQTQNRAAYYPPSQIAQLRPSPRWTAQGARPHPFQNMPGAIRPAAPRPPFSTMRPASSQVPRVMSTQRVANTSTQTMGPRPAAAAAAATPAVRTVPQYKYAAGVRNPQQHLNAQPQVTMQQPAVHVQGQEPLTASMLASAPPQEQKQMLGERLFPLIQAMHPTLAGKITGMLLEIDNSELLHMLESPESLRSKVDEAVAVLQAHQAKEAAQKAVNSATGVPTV
Rce1 inh = yeast Rce1p protease inhibitors, primary screen, biochemical, fluorescence, cell-free homogeneous. CAAX prenyl protease 2 (Saccharomyces cerevisiae (strain ATCC 204508 / S288c)), Q03530. yeast membranes, quenched prenylated peptide cleavage fluorescence. calls only. 290,000 tested, 0.27% active. AID 2563, 2010;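 active = fall in fluorescence gain of 50% or more versus controls, with final raw signal at or below 3038400; inconclusive = same 50% fall but final raw signal above 3038400; inactive = fall in fluorescence gain under 50%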;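 note: plate controls were neutral control wells for no effect and wells lacking membranes for full effect; tested at 10 µM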
eIF4H FP inh retest = second read-out of eIF4H FP inh, no call of its own (marks repeat the call); inhibition, %; compound at 20 µM; confirmation average;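 mean of two retest wells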
PABP FP inh retest = second read-out of PABP FP inh, no call of its own (marks repeat the call); inhibition, %; compound at 20 µM; confirmation repeats;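 mean of two retest wells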
MT1-MMP act inh RFP = recorded beside MT1-MMP act inh, whose call it bears; RFP signal change, %; measured here: RFP expression control read;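 0 = vehicle wells; hits needed this value within 50% of zero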
* hit, by the source's call; i = inactive; ? = inconclusive; nt = no result given.

SMILES	MT1-MMP act inh	MT1-MMP act inh RFP	eIF4H FP inh	Yeast UUG start	HIV Env fusion	CSC inhib	PABP FP inh	Rce1 inh	others
O=C(COC(=O)c1c2c(nc3ccccc13)CCCC2)c1cccs1	-1	0	-4	-20	nt	5	8	i
COc1ccc(NC(=O)COC(=O)c2ccc3ccccc3n2)c(OC)c1	4	8	nt	-11	nt	-14	nt	nt
COc1ccc(C2C(C(=O)OCC(=O)NC(C)(C)C)CCC(=O)N2c2ccc(C)cc2)cc1OC (stereo unspecified)	-2	0	-10	5	-39	-5	1	i
Cc1cccc(CSc2nnc(CCCCCNC(=O)OC(C)(C)C)o2)c1	0	2	-4	0	1	-3	-10	i
COc1ccc(/C=N/n2c(-c3ccccc3)n[nH]c2=S)cc1	-1	-1	-14	-15	-9	-12	10	i
CCOC(=O)N1CCN(C(=O)c2cccn3c(=O)c4cc(Br)ccc4nc23)CC1	-5	-2	-2	nt	6	5	2	nt
CCn1c(C)nnc1SCC(=O)Nc1cccc(C(F)(F)F)c1	3	2	0	-12	4	-21	17	i
CCN1CC(CN(C)Cc2nc(-c3ccc(OC)c4ccccc34)oc2C)CC1=O (stereo unspecified)	-8	3	6	-4	10	-16	4	i
C=CCn1c(-c2ccccc2)n[nH]c1=S	0	-2	4	-17	nt	-2	-6	i
O=Cc1cn(CCC(=O)O)nc1-c1cccc(Cl)c1	2	3	1	nt	25	-11	-1	i

A draw from above in order of molar mass, highest first.
SMILES	MT1-MMP act inh	MT1-MMP act inh RFP	eIF4H FP inh	Yeast UUG start	HIV Env fusion	CSC inhib	PABP FP inh	Rce1 inh	others
COc1ccc(C2C(C(=O)OCC(=O)NC(C)(C)C)CCC(=O)N2c2ccc(C)cc2)cc1OC (stereo unspecified)	-2	0	-10	5	-39	-5	1	i
Cc1cccc(CSc2nnc(CCCCCNC(=O)OC(C)(C)C)o2)c1	0	2	-4	0	1	-3	-10	i
COc1ccc(NC(=O)COC(=O)c2ccc3ccccc3n2)c(OC)c1	4	8	nt	-11	nt	-14	nt	nt
O=Cc1cn(CCC(=O)O)nc1-c1cccc(Cl)c1	2	3	1	nt	25	-11	-1	i

The results go on.
SMILES	MT1-MMP act inh	MT1-MMP act inh RFP	eIF4H FP inh	Yeast UUG start	HIV Env fusion	CSC inhib	PABP FP inh	Rce1 inh	others
Cc1ccc(C(=O)OCC(=O)c2ccc(S(=O)(=O)N3CCCCC3)cc2)o1	-1	0	nt	-8	10	-5	nt	i
N/C(=N\N=Cc1ccc2c(c1)OCO2)NN=Cc1ccc2c(c1)OCO2	2	0	nt	0	-10	nt	nt	nt
COc1ccc(/C(O)=C2/C(=O)C(=O)N(Cc3cccnc3)C2c2ccccn2)cc1 (stereo unspecified)	0	1	4	-12	-63	-2	-20	i
Cc1cc([N+](=O)[O-])ccc1-c1ccc(/C=N/NC(=O)Cc2ccccc2)o1	-1	-7	?	nt	3	8	13	i
CCCS(=O)(=O)N1CCCC(C(=O)NCCCN(CC)c2cccc(C)c2)C1 (stereo unspecified)	4	-1	-9	5	nt	5	-2	i
S=C(Nc1ccccc1Cl)N(Cc1cccnc1)Cc1ccco1	-2	2	-3	nt	8	nt	12	i
COc1ccccc1N1CCN(C(=O)C(=O)c2cn(CC(=O)N3CCCCCC3)c3ccccc23)CC1	-1	-1	50	8	-28	-14	22	i	eIF4H FP inh retest=10;PABP FP inh retest=29
CN1CCN(NC(=O)Nc2ccc(F)cc2)CC1	-5	0	-8	6	-11	-4	4	i
Cc1cc(NC(=O)C23CCC(C)(C(=O)O2)C3(C)C)no1 (stereo unspecified)	0	3	-7	-15	10	-12	-4	i
CC(C)c1nc(C(N)=O)c2[nH]c(=O)n(-c3ccc(F)cc3)c2n1	0	2	3	-4	33	-2	-2	i
Cc1ccc(C)c(C(O)c2ncc(-c3ccccc3Cl)[nH]2)c1 (stereo unspecified)	-3	2	nt	-23	-16	nt	nt	nt
COc1ccc2c(c1OC)C(=O)N1C2SC(C)(C)[C@H]1C(=O)NC1CCCC1 (stereo partly specified)	0	2	-6	-3	nt	-6	3	nt
CCOc1ccc(S(=O)(=O)N(C)c2ccc(OCC(=O)NCc3ccc(C(=O)OC)cc3)cc2)cc1	4	0	-8	nt	15	-9	-1	i
CN(CC(=O)O/N=C(\N)c1ccccn1)S(=O)(=O)c1cc(Cl)ccc1Cl	1	4	-11	-20	4	-8	0	i
COc1ccc(-c2n[nH]c(C)c2-c2ccc(Cl)cc2)c(O)c1OC	-4	-5	12	-11	-55	34	-5	i
COC(=O)C1=C[C@@H](C(=O)OC)[C@@H]2C3=C(C(=O)[C@@]2(C)NC(=O)c2ccccc2)[C@H](c2ccccc2)[C@@H]2C(=O)NC(=O)[C@@H]2[C@@H]3C1	-6	-5	nt	-5	-1	-1	nt	i
COc1cccc(CN(C)C(=O)c2cccc(S(=O)(=O)N3CCN(c4ccc(F)cc4)CC3)c2)c1OC	-4	-34	nt	-5	15	-11	nt	i
O=S1(=O)CCN(Cc2ccc(F)cc2)CC1	-4	-5	3	nt	-1	-10	-7	i
CCCCc1nc(NCc2ccccc2)c(C#N)c2c1COC(C)(C)C2	-1	2	1	-6	nt	7	-4	i
CC(=O)c1nc(N2C(=O)CC(Cc3ccc(C)cc3)C2=O)sc1C (stereo unspecified)	-3	0	-5	-1	19	5	5	i
O=C(c1ccccc1)c1c[nH]c2cc3c(cc2c1=O)OCO3	nt	nt	-3	nt	nt	nt	13	i
CCS(=O)(=O)N1CCC(C(=O)O)CC1	3	0	4	nt	4	4	-4	i
Cc1ccc(C)c(N2CCN(C(=O)CCCCn3c(=O)[nH]c4ccccc4c3=O)CC2)c1	-3	-12	-7	19	39	-5	-10	i
COc1cccc(NC(=O)CN(C)C(=O)c2cc(-c3ccc(C)o3)nc3ccccc23)c1	-3	4	nt	-12	19	nt	nt	nt
COCCN(C(=O)c1cc(Cl)nc2ccccc12)c1c(N)n(Cc2ccccc2)c(=O)[nH]c1=O	-3	5	nt	4	-4	nt	nt	nt
COc1ccc(S(=O)(=O)N2CC(O)CC2C(=O)Nc2cccnc2)cc1 (stereo unspecified)	2	-3	-3	51	-2	-14	-5	i
CC(C)(C)c1cc[n+](/C(C(=S)NC2CC2)=C(/[O-])c2ccc(Cl)s2)cc1	-3	-2	6	-12	-63	8	14	i
Cc1ccc(CNC(=O)c2cnc(-c3ccccn3)nc2C(F)(F)F)cc1	11	4	-7	-24	-28	-11	-4	i
CSc1cccc(NC(=O)CCCOc2ccc(Cl)cc2Cl)c1	4	2	2	-12	-70	14	2	i
NC(=O)c1cccc(-c2csc(C(O)c3ccccc3)n2)c1 (stereo unspecified)	7	0	nt	1	-11	nt	nt	nt
O=C(COC(=O)c1ccccc1Br)NCCC1=CCCCC1	2	6	-5	-1	3	-14	8	i
O=C(Nc1ccccc1F)c1ccc(CNS(=O)(=O)c2cccc(C(F)(F)F)c2)cc1	0	1	-5	-4	nt	-6	5	i
CCN1CCN(c2ccc(S(=O)(=O)N3CCCCC3)cc2NC(=O)COc2ccc(F)cc2Cl)CC1	-1	-5	-5	7	-4	24	23	i
Cc1ccc(S(=O)(=O)N2CCOCC2)cc1C(=O)NCC1CCCO1 (stereo unspecified)	3	1	-2	2	26	-4	14	i
COc1ccc(-c2nc(CSCC(=O)NC3CCN(Cc4ccccc4)CC3)c(C)o2)cc1OC	6	1	nt	-25	-9	-8	nt	i
CC(NC(=O)CCSCc1ccccc1F)c1ccccc1 (stereo unspecified)	0	3	2	5	-11	5	-4	i
Cc1cc(C)c(NC(=O)CN2C(=O)NC3(CCOc4ccccc43)C2=O)c(C)c1 (stereo unspecified)	1	0	-8	2	nt	-10	-16	i
CCCc1nn(C)c2c1C(c1ccncc1)C(C#N)=C(N)O2 (stereo unspecified)	-3	1	-5	-14	nt	-13	-4	i
O=C(Nc1ccc(CN2CCCCC2)cc1)c1ccc(Br)o1	-4	0	-5	-14	nt	1	7	i
COC(=O)Cc1c(O)ccn(CCc2c[nH]c3ccccc23)c1=O	-2	-3	-7	nt	4	-2	1	i
CN1C(=O)c2cccc3c(S(=O)(=O)Nc4ccc(O)c(C(=O)O)c4)ccc1c23	3	3	5	-8	0	-2	32	i
CC(C)CC(=O)N1CCC(N2CCN(c3ccccc3)CC2)CC1	2	4	2	-16	-8	-8	5	i
CCC(=O)c1ccc(OC(=O)c2cnccn2)cc1	-3	-5	8	nt	1	-17	7	i
CC(=O)C1=C(O)C(=O)N(c2cc(C(C)(C)C)on2)C1c1ccc(Br)cc1 (stereo unspecified)	13	5	6	-6	21	nt	36	i
CC(=O)OCCNC(=O)c1cccnc1	0	4	9	-10	-41	-2	4	i
CC1(C)N=C(N)NC(Nc2cccc(Br)c2)=N1	0	-9	4	-22	-20	3	1	i
CCOc1ccc(NC(=S)Nc2ccc(OCc3ccccc3)cc2)cc1	8	4	1	-25	10	-5	9	i
N#Cc1ccc(NC(=O)c2cc(=O)c3ccccc3o2)cc1	-2	-4	5	nt	1	-1	-9	i
CC(=O)Nc1ccc(NC(=O)N2CCCCC2)cc1	4	0	1	-16	nt	2	8	i
O=C(NNC(=O)c1ccc(F)cc1)C(=O)N1CCCCC1	12	11	-10	-14	-86	14	6	i

(continued)
SMILES	MT1-MMP act inh	MT1-MMP act inh RFP	eIF4H FP inh	Yeast UUG start	HIV Env fusion	CSC inhib	PABP FP inh	Rce1 inh	others
Cc1occc1C(=O)N/N=C/c1cnn(C)c1C	1	3	-12	-12	-67	-8	0	i
CCOc1ccc(CNC(=O)CCCn2nc(CC)n3c(cc4occc43)c2=O)cc1	-3	-3	-3	-7	-15	4	11	i
COc1cc(N2C(=O)CSC2=S)cc(OC)c1OC	10	9	3	-14	26	0	3	i
CCOC(=O)N1CCN(c2c(N3CCN(C(=O)OCC)CC3)c(=O)c2=O)CC1	-3	-2	-7	-17	3	2	-1	i
CCCc1cc(=O)[nH]c(SCC(=O)c2cc(C)n(-c3cc(C)on3)c2C)n1	-1	-3	-3	nt	17	-10	9	i
CCCCc1ccc(NC(=S)NCCO)cc1	3	4	-5	nt	11	7	-17	i
Cc1cc(Br)ccc1NC(=O)CN(C)C(=O)C1CSC2(C)CCC(=O)N12 (stereo unspecified)	2	0	nt	-1	0	nt	nt	nt
CCOc1ccccc1NC(=S)NNS(=O)(=O)c1c(C)cc(C)cc1C	3	9	0	nt	4	10	13	i
CCC1(c2ccccc2)NC(=S)N(c2ccc(C)c(C)c2)N1 (stereo unspecified)	3	1	-4	1	-37	2	4	i
O=C(NCCc1ccccc1)c1cnc2n(c1=O)CCS2	3	4	4	nt	-3	1	-2	i
COc1ccc(OC)c(N(CC(=O)Nc2cccc(C(F)(F)F)c2)S(C)(=O)=O)c1	-4	-5	-2	-5	13	3	-4	i
CCCCOC(=O)c1ccc(NC(=O)C2CCCO2)cc1 (stereo unspecified)	-3	0	-3	nt	-119	5	-2	i
